Assay outcomes from PubChem BioAssay.
KCNQ2 pot: potentiators of rat KCNQ2 potassium channel; Potassium voltage-gated channel subfamily KQT member 2 (Rattus norvegicus), O88943; B-score at 10 µM; 0.54% of 310,000 active; AID 2239, 2010; CHO-K1 KCNQ2, FluxOR thallium flux fluorescence; stronger effect = higher value;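 active means fluorescence ratio B-score at least 3 SD of library B-scores, with initial fluorescence B-score within 3 SD, cut at about 5.3 in these data; same plate scores as AID 2156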;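 further: B-score of peak minus minimum over baseline fluorescence ratio after K+ and Tl+ stimulus; positive B-score means potentiation of KCNQ2 with more thallium influx and brighter signal; only the inactives scoring about 0 or higher are listed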
Target sequence (O88943 whole entry, looked up): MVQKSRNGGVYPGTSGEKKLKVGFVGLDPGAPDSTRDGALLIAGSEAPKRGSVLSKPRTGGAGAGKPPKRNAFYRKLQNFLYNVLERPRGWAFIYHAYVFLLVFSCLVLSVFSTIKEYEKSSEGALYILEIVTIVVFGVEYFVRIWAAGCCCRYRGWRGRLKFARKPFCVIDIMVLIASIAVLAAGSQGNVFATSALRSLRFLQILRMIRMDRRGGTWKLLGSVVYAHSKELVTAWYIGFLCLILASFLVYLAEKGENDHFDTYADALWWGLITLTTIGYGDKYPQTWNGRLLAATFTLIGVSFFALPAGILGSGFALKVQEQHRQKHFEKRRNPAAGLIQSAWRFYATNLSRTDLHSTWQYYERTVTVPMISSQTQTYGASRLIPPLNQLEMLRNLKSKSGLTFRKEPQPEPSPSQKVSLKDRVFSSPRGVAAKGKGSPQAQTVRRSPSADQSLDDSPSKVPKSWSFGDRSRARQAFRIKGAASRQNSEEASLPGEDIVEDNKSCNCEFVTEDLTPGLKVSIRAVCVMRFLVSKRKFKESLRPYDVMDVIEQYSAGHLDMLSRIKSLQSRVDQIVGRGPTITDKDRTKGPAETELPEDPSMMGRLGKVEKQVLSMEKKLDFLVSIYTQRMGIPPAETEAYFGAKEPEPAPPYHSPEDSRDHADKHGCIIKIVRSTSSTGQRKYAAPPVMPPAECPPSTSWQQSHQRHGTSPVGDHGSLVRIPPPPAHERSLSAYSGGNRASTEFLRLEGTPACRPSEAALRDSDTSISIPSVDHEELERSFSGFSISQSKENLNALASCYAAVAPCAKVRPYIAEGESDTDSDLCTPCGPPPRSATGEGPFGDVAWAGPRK
KCNQ2 pot baseline: second read-out of KCNQ2 pot, no call of its own (marks repeat the call); B-score; compound at 10 µM; measured here: initial fluorescence intensity artifact check;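 brightness before thallium and not channel activity; 0 = typical well and far values either way flag optical interference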
The depositor's hits bear a star.

KCNQ2 pot	KCNQ2 pot baseline	molecule
0.06	2.9	S=C(NCCc1ccccc1)Nc1ccccn1
1.4	-0.24	Cc1nc(Cl)c(C(=O)NCc2ccccc2)c(C)c1Cl
1.6	-0.08	COc1cccc(OCCNC(=O)c2cc(OC)c(OC)c(OC)c2)c1
0.8	1.1	CC1CCCN(CCS(=O)(=O)c2ccccc2)C1 (stereo not drawn)
0.19	0.08	CCCC1C(C#N)=C(N)Oc2n[nH]c(C(C)(C)C)c21 (stereo not drawn)
0.02	-1.4	CC(C)C(=O)Nc1ccc2c(c1)Cc1cc(NC(=O)C(C)C)ccc1-2
1.4	0.02	CCOC(=O)C1(Cc2ccc(OC)cc2)CCN(C(=O)[C@@H]2CCCN2C(C)=O)CC1
0.22	0.18	COc1ccc(OC)c2[nH]c(=O)c(CCNC(C)=O)cc12
1.3	-0.27	Cc1cc(NC(=O)Nc2ccccc2[N+](=O)[O-])n(C)n1
0.67	-0.71	CN(Cc1cnccn1)Cc1nc(Cc2ccccc2F)no1
1.6	-0.54	Cc1cc(=O)[nH]c(-n2nc(C)c(Oc3ccccc3O)c2C)n1
0.42	-1.3	COc1ccc(-c2nnc(SCC(=O)c3ccco3)n2-c2ccccc2)cc1
0.14	-1.3	CCCn1ccc2c(OCC(=O)Nc3ccc(NC(C)=O)cc3)cccc2c1=O
1.5	-0.04	CCC(=O)N1CCc2cc(Br)cc(S(=O)(=O)NCc3ccco3)c21
0.86	0.12	CCCCCCSc1cc(-c2nc3ccc(Cl)cn3c2NCCCC)ccc1OC
0.61	-2	COc1cc(CN2CCN(S(=O)(=O)c3ccccc3)CC2)cc(OC)c1OC
0.06	-0.04	O=C1NC(c2ccc(-c3ccccc3[N+](=O)[O-])o2)C(C(=O)c2ccc(F)cc2)C(O)(C(F)(F)F)N1 (stereo not drawn)
1.5	1.1	CCC(=O)Nc1nnc(SCC(=O)Nc2ccc3c(c2)OCO3)s1
0.55	0.37	CCNC(=O)COC(=O)/C=C/c1ccccc1[N+](=O)[O-]
0.12	2.6	Cc1ccc(/C=C/S(=O)(=O)Nc2ccc(C)cc2)cc1

2 entries drawn at random from those above, as already listed:
KCNQ2 pot	KCNQ2 pot baseline	molecule
0.19	0.08	CCCC1C(C#N)=C(N)Oc2n[nH]c(C(C)(C)C)c21 (stereo not drawn)
0.42	-1.3	COc1ccc(-c2nnc(SCC(=O)c3ccco3)n2-c2ccccc2)cc1

The listing continues:
KCNQ2 pot	KCNQ2 pot baseline	molecule
0.41	-1.9	CCc1ccc(C(C)(O)C(CN2CCOCC2)c2ccccc2)cc1 (stereo not drawn)
1.2	2.3	O=C1CSC(c2cccnc2)N1CC1CC1 (stereo not drawn)
1.7	0.7	C[C@@H](C(=O)O)[C@@H]1C[C@@]1(C)[C@@H](NC(=O)OCc1ccccc1)c1ccccc1
3.7	0.22	COC(=O)N1C(=O)[C@@](Cc2ccccc2)(c2ccccc2)N1C(=O)OC
0.02	1.4	N#Cc1c(N)c2ccccn2c1C(=O)c1ccc(Br)cc1
0.82	0.48	N#Cc1ccccc1CSc1nc(N2CCCCC2)nc(N2CCCCC2)n1
0.01	0.51	O=C(CSc1ccccc1)Nc1nccs1
0.09	0.52	COc1ccc(-c2cc(C(=O)NCCCN3CCOCC3)on2)cc1OC
0.55	0.36	CC(=O)Oc1ccc(/C=C(\NC(=O)c2cccc(Br)c2)C(=O)Nc2ccc(C(=O)O)cc2)cc1
0.33	0.43	COc1ccc(OC)c(N2C(=O)c3cccnc3C2=O)c1
1.2	1.4	c1ccc(-c2nnsc2-c2ncc[nH]2)cc1
0.04	-0.82	CCOC(=O)c1ccc(N2CCN(C(C)=O)CC2)c(NC(=O)c2cccnc2)c1
0.64	1.5	CCOC(=O)C1=C(C)NC(=S)NC1c1ccco1 (stereo not drawn)
0.09	0.34	Cc1ccc(-c2nc(CS(=O)(=O)CC(=O)NCc3cccc(F)c3)c(C)o2)cc1
0.05	-1.4	CCOc1ccc(CCNS(=O)(=O)c2ccc3c(c2)N(C(C)=O)CCO3)cc1OCC
0.51	1.5	CCOC(=O)c1ccc(-c2ccc(C(=O)Nc3cccnc3)o2)cc1
3.8	1.9	CCOc1cccc(-c2c(C(=O)N/N=C/c3c(F)cccc3Cl)nnn2-c2nonc2N)c1
2.4	-1.2	CNS(=O)(=O)c1cc(NC(=O)c2cncn2-c2ccccc2)ccc1C
2.2	0.07	Cc1ccc(CNC(=O)C2CCN(S(=O)(=O)c3c(C)noc3/C=C/c3ccco3)CC2)cc1
1.5	0.3	COc1cccc(C2C(C#N)=C(N)Oc3cc(C)n(Cc4ccco4)c(=O)c32)c1 (stereo not drawn)

Complete entries as entered above. Order of values: KCNQ2 pot | KCNQ2 pot baseline
Results for CCOC(=O)c1ccc(N2CCN(C(C)=O)CC2)c(NC(=O)c2cccnc2)c1 : 0.04 | -0.82
Results for O=C(CSc1ccccc1)Nc1nccs1 : 0.01 | 0.51
Results for N#Cc1ccccc1CSc1nc(N2CCCCC2)nc(N2CCCCC2)n1 : 0.82 | 0.48

Among those listed so far, two contain two or more sulfur atoms.
KCNQ2 pot	KCNQ2 pot baseline	molecule
1.5	1.1	CCC(=O)Nc1nnc(SCC(=O)Nc2ccc3c(c2)OCO3)s1
0.01	0.51	O=C(CSc1ccccc1)Nc1nccs1

(next part)
KCNQ2 pot	KCNQ2 pot baseline	molecule
0.61	0.97	Cn1c(SCC(=O)Nc2ccc3cn[nH]c3c2)nnc1-c1cccs1
0.31	1.2	CCOc1ccccc1CN1C(=O)c2ccccc2C1C(=O)NC(C)CC (stereo not drawn)
1	-1.5	Cn1c(=NC(=O)c2ccc(S(=O)(=O)N3CCCc4ccccc43)cc2)sc2cc(S(C)(=O)=O)ccc21
0.47	0.61	Cc1ccc(C(=O)C(C)OC(=O)Cn2cnc3c2c(=O)n(C)c(=O)n3C)cc1 (stereo not drawn)
0.02	0.15	Cc1ccc(-n2c(SCCN)nnc2-c2cccc(C)c2)cc1
1.4	-0.11	Oc1ccc(N=Nc2ccccc2-c2nn[nH]n2)c(O)c1
0.1	-1.3	COc1ccc(NC(=S)N(CCCN2CCC(C)CC2)Cc2cccs2)cc1Cl
0.86	-1.2	CCn1c(CSc2nc(C)cc(C)n2)nnc1SCC(=O)Nc1nc(-c2ccccc2)cs1
0.06	0.72	O=C(CSc1nc2cc(Cl)ccc2s1)Nc1cccc(S(=O)(=O)N2CCOCC2)c1
0.41	-1.4	Cc1ccccc1OCC(=O)NC(=S)Nc1ccc(S(=O)(=O)NC2CCCCC2)cc1
2.2	-0.67	Cn1c(NCC(O)c2ccccc2)nc2c1c(=O)n(Cc1ccc(Cl)c(Cl)c1)c(=O)n2C (stereo not drawn)
1.4	-0.68	Cc1ccc(-c2nn(CC(N)=O)c(=O)c3ccccc23)cc1S(=O)(=O)N(C)C
0.03	-0.03	Cc1noc(NS(=O)(=O)c2ccc(NC(=O)NC(C)(C(F)(F)F)C(F)(F)F)cc2)c1C
0.24	-0.98	CC(=O)C1=C(C)N(Cc2ccccc2)C(=O)N[C@H]1c1cccc(F)c1
0.09	0.99	CCCCOc1ccc(C(C)NC(=O)CCS(=O)(=O)Cc2ccccc2Cl)cc1 (stereo not drawn)
0.14	0.06	O=C(c1ccc(Br)o1)N1CCN(CCOc2ccccc2)CC1
1.2	-1.7	CCCCn1c(SCC(=O)NCc2ccco2)nc2ccc(N3CCOCC3)cc2c1=O
1.3	-1.3	O=CN1CCN(C(C(=O)NC2CCCCC2)c2cc3c(cc2[N+](=O)[O-])OCO3)CC1 (stereo not drawn)
0.01	0.51	Cc1cccc(-n2c(O)cnc2Nc2nc(C)cc(C)n2)c1
0.12	1.1	COc1ccc(NC(=O)c2cc(Br)ccc2Cl)c(OC)c1
1.9	-0.84	O=C(NCc1cccnc1)C(=O)NCC1CCCO1 (stereo not drawn)
0.75	0.75	Cc1cc(C)c2c(=O)c(C#N)coc2c1
1.3	1.7	COc1ccc(NS(=O)(=O)c2cccc(C(=O)NCC3CCCO3)c2)cc1 (stereo not drawn)
0.11	-0.17	COc1ccc(C2C(C(=O)c3ccc(C)o3)=C(O)C(=O)N2Cc2cccnc2)cc1OC (stereo not drawn)
1.1	0.8	COc1ccc(S(=O)(=O)Nc2c(NC3CCCCC3)c3ccccc3oc2=O)cc1OC
1.2	-0.12	O=C(NCc1cccnc1)C1CC(c2ccccc2Cl)=NO1 (stereo not drawn)
0.42	-0.34	CCCn1c(N)c(Sc2ccc(Cl)cc2)c(=O)n(CCC)c1=O
0.4	0.78	CCOc1ccc(NC(=O)CCCc2cc(-c3ccc(OCC)cc3)on2)cc1
0.55	0.78	CCOc1ccc(-c2nc(-c3ccc(OC)cc3)no2)cc1OCC
0.94	-0.1	CCO[C@@H]1OC(C(=O)Nc2ccccc2)=C[C@H](c2ccc(C(F)(F)F)cc2)[C@H]1CCCO
0.36	1.1	COc1ccccc1OCC(=O)NC1CC(C)(C)NC(C)(C)C1
0.24	0.23	CCOc1ccc2[nH]c(C(=O)N/N=C/c3ccccc3OC)cc2c1
0.01	-2.9	COC(=O)C1=C(NC(C)=O)CCS1
1.1	0.96	CN(C(=O)CCc1nnc(CCCCc2ccccc2)o1)C1CCOCC1
1.6	-0.05	Cc1nn(-c2ccc(N3CCCCC3)nn2)c(C)c1CCC(=O)Nc1ccccc1F
1.2	0.68	Cc1nn(C)c(C)c1CN(C)C(=O)C1CCC(=O)N(C2CCCCCC2)C1 (stereo not drawn)
0.04	0.52	CCOC(=O)c1c(C)[nH]c(C(=O)CSc2nnc(-c3ccncc3)n2CC)c1C
1.2	0.08	Cc1c(-c2ccccc2)c(=O)oc2ccc(O)cc12
1.5	1.2	Cc1nonc1NC(=O)CSc1nc(CCC2CCCC2)nc2ccccc12
0.68	2	O=C(O)C1CCCN1S(=O)(=O)c1ccc(Br)s1 (stereo not drawn) (tested in a mixture with another compound)
3.6	0.85	O=C(NNc1nc(-c2ccccc2)c2cc(Br)ccc2n1)c1ccc(S(=O)(=O)N2CCCCC2)cc1
6.6*	1*	Cc1ccc(CNC(=O)C2CCN(S(=O)(=O)c3ccc4c(c3)CC(C)N4C(=O)C3CCC3)CC2)o1 (stereo not drawn)
0.44	-0.14	CC(CN1CCCCC1)OC(=O)c1cc2ccccc2o1 (stereo not drawn)
1.1	0.16	CC(C)(C)NC(=O)Cc1ccc(S(=O)(=O)N2CCCC2)s1
0.27	0.16	CC(=O)Nc1cccc(-c2nc3ccccc3s2)c1C
1.9	0.12	O=S(=O)(NCC1CCN(Cc2ccccc2)CC1)c1ccccc1C(F)(F)F
0.65	-0.83	O=C(c1ccccn1)N1CCN(S(=O)(=O)c2ccccc2)CC1
0.42	-1.1	COc1cc(C(C)=O)ccc1Oc1ncnc2c1cnn2-c1ccc(F)cc1
0.14	-1.7	CC1(C)C2CCC(C2)C1(C)NC(=O)CN1CCN(Cc2ccccc2)CC1 (stereo not drawn)
13*	-0.96*	Cc1nonc1OCCNC(=O)C12CC3CC(CC(C3)C1)C2
0.84	0.17	O=C1C2CCCCC2C(=O)N1c1ccc(NC2CCCCC2)c([N+](=O)[O-])c1 (stereo not drawn)
0.91	-0.12	COc1cccc(NC(=O)COC(=O)c2ccccc2F)c1
1.3	-1.6	CCOC(=O)C1(Cc2cccc(OC)c2)CCN(Cc2cccn2-c2ccccn2)CC1
0.01	-0.69	CCOc1ccc2nc(SCC(=O)NCc3ccc(OC)cc3)[nH]c2c1
0.44	-0.05	CC1=NN(C(C)C)C(=O)C1
1.5	-0.28	CCN(CC)C(=O)CCNS(=O)(=O)c1ccc(C)cc1
0.45	-2.3	O=C(Nc1ccccc1)Nc1cccc2cccnc12
0.46	1.9	CCN1CCN(C(=O)c2cc3c(s2)-c2c(C)cccc2OC3)CC1
0.42	-1.9	COc1ccccc1-c1coc2cc(OCC(=O)OCc3ccccc3)ccc2c1=O
0.55	0.93	O=C(CCn1cnnn1)Nc1cccc(F)c1

Overlap with the part before: 4 compounds, then new ones.
KCNQ2 pot	KCNQ2 pot baseline	molecule
0.45	-2.3	O=C(Nc1ccccc1)Nc1cccc2cccnc12
0.46	1.9	CCN1CCN(C(=O)c2cc3c(s2)-c2c(C)cccc2OC3)CC1
0.42	-1.9	COc1ccccc1-c1coc2cc(OCC(=O)OCc3ccccc3)ccc2c1=O
0.55	0.93	O=C(CCn1cnnn1)Nc1cccc(F)c1
1.6	1.7	CC1CCCC/C1=N\NC(=S)NCCc1ccccc1 (stereo not drawn)
0.28	0.25	COc1ccc(C(=O)CSc2ccc(-c3ccccc3)nn2)cc1
2.8	-1.8	O=C(Nc1ccc(C(F)(F)F)cn1)Nc1cccs1
0.01	0.04	COc1cc(NC(=O)CSc2ncccc2C(=O)OC(C)C)cc(OC)c1
1.5	0.45	Cc1ccc(S(=O)(=O)Nc2ccc(-c3nnc(SCC#N)n3C)cc2)cc1
0.63	-0.97	CCCCOc1ccc(C(=O)N/N=C/c2cn[nH]c2-c2ccc(OC)c(OC)c2)cc1
1	0.15	Cc1ccc(S(=O)(=O)/N=C(\CCl)N2CCOCC2)cc1
1.3	0.36	COc1ccc(N(CC(=O)NCc2cccnc2)S(=O)(=O)c2ccc(C)c([N+](=O)[O-])c2)cc1
0.04	1.1	O=C(Cc1ccccc1)NC1CCN(S(=O)(=O)c2cccc(F)c2)CC1
0.03	-0.69	CC1(C(=O)O)CCC(C(=O)NNC(=O)c2ccccc2O)C1(C)C (stereo not drawn)
1.2	-0.17	Cc1cc2c(SCC(=O)N3CCN(c4ccccc4)CC3)ncnc2s1
0.87	0.71	CN(C)S(=O)(=O)c1cccc(NC(=S)NC2CCCCC2)c1

Not all compounds are listed; count on the stated rates, not on these rows.
